TRPML1 agonist = activates the human TRPML1 channel; actives 0.12% (n = 410,000); activation, % (test concentration not listed); Q9GZU1; TRPML1-expressing cells, Ca2+ dye fluorescence, FDSS; host cell line not named in the record; reference of the full effect not given here; AID 624414; in the data active = activation above about 50%; inconclusive = about 30% to 50%; inactive = below about 30%; further: 0% is about no effect; the text of the record puts the active cut at 80%
Target sequence (Q9GZU1 whole entry, looked up): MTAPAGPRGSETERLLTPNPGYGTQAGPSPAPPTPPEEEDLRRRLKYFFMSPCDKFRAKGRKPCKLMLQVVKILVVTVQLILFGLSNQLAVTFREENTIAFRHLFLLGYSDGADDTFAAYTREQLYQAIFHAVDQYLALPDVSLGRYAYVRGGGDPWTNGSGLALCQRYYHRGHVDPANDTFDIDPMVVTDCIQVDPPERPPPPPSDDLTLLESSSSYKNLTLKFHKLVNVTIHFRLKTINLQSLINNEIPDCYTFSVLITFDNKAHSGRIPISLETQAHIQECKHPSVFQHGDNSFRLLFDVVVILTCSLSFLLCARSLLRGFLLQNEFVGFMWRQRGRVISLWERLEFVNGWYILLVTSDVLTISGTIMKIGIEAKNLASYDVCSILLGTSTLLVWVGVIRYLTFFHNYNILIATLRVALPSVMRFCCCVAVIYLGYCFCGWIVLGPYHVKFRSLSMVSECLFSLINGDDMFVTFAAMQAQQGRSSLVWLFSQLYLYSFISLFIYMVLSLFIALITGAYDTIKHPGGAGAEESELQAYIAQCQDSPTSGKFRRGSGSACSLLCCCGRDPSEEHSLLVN
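Tetracycline-induced TRPML1-DL cells are seeded and incubated overnight before loading with a no-wash Ca2+ dye and quencher. Agonist activity is taken from the 110 s fluorescence read following compound pin-transfer on an FDSS, before EC80 54-4 challenge.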
ClpP mod = qHTS Assay for Activators of ClpP | ATP-dependent Clp protease proteolytic subunit (Bacillus subtilis (strain 168)), P80244 | purified B. subtilis ClpP, FRET peptide cleavage, 20 min | Potency, µM (highest dose often 57.5 µM), inactives show top-dose activity change, negative = active | actives 1.9% (n = 340,000) | AID 651965, 2013; active = well fitted falling curve with a large enough effect; inconclusive = small, poorly fitted or top-dose-only effect; inactive = no such curve, though single readings can be large or run the other way; further: potency means the concentration at half of the fitted maximal effect; the source files actives as falling curves though it sought activators and does not explain the sign; nearly all actives have a fitted effect of over 65% in size; many hits overshoot -100%
Target sequence (P80244 whole entry, looked up): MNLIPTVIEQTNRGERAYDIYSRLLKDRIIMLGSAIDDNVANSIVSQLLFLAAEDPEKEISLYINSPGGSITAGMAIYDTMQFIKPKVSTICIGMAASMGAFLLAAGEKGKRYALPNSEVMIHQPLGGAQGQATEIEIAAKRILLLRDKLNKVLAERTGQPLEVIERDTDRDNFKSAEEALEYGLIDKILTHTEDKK
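Purified B. subtilis ClpP, 10 microg/mL final in Tris/HCl pH8 with KCl, BSA, glycerol and Tween-20, cleaved an Abz/nitrotyrosine-quenched decapeptide. Fluorescence (ex 320, em 430) was read at 0 and 20 min at room temperature. Delta was normalized to 5.8 microM ADEP and DMSO/no-enzyme controls.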
TRPV1 PAM = human TRPV1 potentiation; potentiation, % at 8.33 µM; actives 0.02% (n = 320,000); TRPV1-expressing cells, Fluo-8 calcium influx, capsaicin EC20 potentiation; host cell line not named in the record; control for the full effect not named in the record; active means potentiation above 80%; inconclusive means 30% to 80%; inactive means below 30%; further: 0% is about no effect
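TRPV1-expressing cells were cultured overnight at 35.5C and loaded with Fluo-8 calcium dye for 40 to 90 min at room temperature. After a 10 s baseline, compound was added and calcium influx was read kinetically for 3 min (ex 480/em 520 nm).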
Menin-MLL FL inh = displaces fluorescein MLL peptide from human menin. Fluorescence polarization, fluorescein-MLL peptide displacement from menin. FP activity change, % at 61.4 µM. 290,000 tested, under 10 active. AID 1766; inconclusive = falling polarisation curve, or a change in total fluorescence; inactive = total fluorescence flat and polarisation flat or rising; no compound was filed as active; the % refers to the polarisation; negative = inhibition;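 further: % of control where 0% means no effect; inhibitors lower the polarisation; unlabelled MLL peptide was the positive control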
Sfp PPTase inh = Sfp phosphopantetheinyl transferase inhibition | Biochemical Sfp PPTase activity, qHTS | Potency, µM, for inactives: max response, negative = inhibition, hits mostly inhibitors | actives 3.5% (n = 310,000); active means well fitted inhibition curve with a large enough effect; inconclusive means small, poorly fitted or top-dose-only effect, or another doubt; inactive means no such curve, though single readings can be large or run the other way;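 further: the enzyme is Sfp with the accession as filed and its product quenches rhodamine fluorescence; potency means the concentration at half of the fitted maximal effect; 0% = enzyme reaction without inhibitor and -100% = no enzyme wells; top concentration of the series not given in the record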
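Buffer: 50 mM Hepes-Na pH 7.6, 10 mM MgCl2, 0.01% Nonidet P-40, 0.01% BSA. Enzyme 15 nM, pre-exposed to compound 15 min; substrates then added and fluorescence change tracked over 30 min.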
TRPML1 blocker = blocks the human TRPML1 channel. Q9GZU1. TRPML1-inducible cells, Ca2+ dye fluorescence, FDSS; active compounds read low; inhibition of EC80 agonist-evoked calcium signal. activity change, negative = inhibition, % (concentration not given with the values). actives 0.02% (n = 390,000); in the data active means activity change below about -50%; inconclusive means about -30% to -50%; inactive means above about -30%;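 further: stimulus is agonist 54-4 at its EC80 concentration; on the % scale 0 is the no-effect control and ±100 the full control effect; the text of the record puts the active cut at -80%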
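Tet-induced TRPML1-DL cells loaded with Ca8 no-wash calcium dye were read kinetically on FDSS. Compound addition was followed by EC80 agonist 54-4 (4 uM final); inhibition was read over 110 s.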
PINK1 modulator = modulators of PINK1 expression; PINK1 immunofluorescence, high-content cytometry, 24 h; Potency, µM (highest dose often 76.6 µM), inactives show top-dose activation (PINK1 increase), usual class: activators; actives 0.2% (n = 410,000); active = well fitted activation curve with a large enough effect; inconclusive = small, poorly fitted or top-dose-only effect; inactive = flat fitted curve, though single readings scatter; cell line not stated here;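 further: potency means the concentration at half of the fitted maximal effect; % of control where 0% means no effect; nearly all actives have a fitted effect of over 65% in size; a mitochondrial uncoupler was the plate control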
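PINK1 protein, normally rapidly degraded, was detected by immunofluorescence after 24 hour compound treatment of a stable cell line. Titration data (5 concentrations) came from laser-scanning cytometry, with CCCP-treated wells as controls.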
The depositor's hits bear a star; ? = inconclusive; . = no result given; [ ] = another dose, or the depositor's remark.

compound | TRPML1 agonist | ClpP mod | TRPV1 PAM | Menin-MLL FL inh | Sfp PPTase inh | TRPML1 blocker | PINK1 modulator
Cc1[nH]c2ccccc2c1C(=O)C(=O)NCc1cccs1 | 0.0 | . | -7 | -4.6 | 9% | -2 | 1.3%
COc1cccc(C(C(=O)NC2CCCCC2)N(C(=O)c2cccs2)c2ccc3c(c2)OCO3)c1 (configuration not stated) | 1.6 | -0.8% | -9 | -1.5 | 8% | 9 | -0.5%
CC(=O)c1ccc(NC(=O)CSc2nc(-c3ccccc3F)nc3c2c(=O)n(C)c(=O)n3C)cc1 | -0.6 | 0.8% | . | . | . | -15 | 1.0%
COC(=O)Nc1ccc(S(=O)(=O)Nc2cccc3ccccc23)cc1 | 0.1 | 0.4% | -2 | 0.4 | 0% | -2 | 7.7%
CCOC(=O)N1CCc2c(sc3c2c(=O)n(-c2ccc(Cl)cc2)c(=O)n3CC(=O)Nc2ccccc2)C1 | 0.0 | -4.2% | . | . | . | 21 | -0.3%
CC(C)(C)OC(=O)C1C(=O)CC(C)(O)C(C(=O)OC(C)(C)C)C1c1cccnc1 (configuration not stated) | -0.4 | 1.4% | 3 | 1.2 | -1% | -21 | -0.9%
CC1(C)CC(=O)C(C=NCCCO)=C(O)C1 | 0.9 | -2.4% | 5 | 0.2 | 10% | -8 | -5.2%[38.3 µM]
O=C(NCc1ccc2c(c1)OCO2)C1CCN(S(=O)(=O)c2ccc(Br)s2)CC1 | 2.4 | -3.0% | 3 | 0.5 | -2% | -23 | -3.9%
CC(CCc1ccccc1)C(=O)NO (configuration not stated) | -0.3 | -3.3% | -10 | -5.5 | -5% | 15 | 2.4%
Cc1ccc(C(OC(=O)c2ccco2)C(=O)NC(C)(C)C)cc1 (configuration not stated) | 0.4 | -0.5% | 4 | 0.5 | 0% | -1 | -1.8%
CCCCNC(=S)Nc1ccc2cn[nH]c2c1 | 0.0 | -1.3% | -17 | 5.1 | 19% | -1 | 0.7%
CCn1nc(-c2ccccc2)c(-c2ccccc2)c(C(=O)Nc2ccccc2C(N)=O)c1=O | 4.3 | 1.5% | . | . | . | 17 | 0.3%
Cc1cccc(-c2nsc(SCC(=O)Nc3nccs3)n2)c1 | -0.7 | 0.2% | 7 | -1.0 | 50µM* | -3 | 10%
NC(=O)Cc1ccc(C(=O)c2ccc(Cl)cc2Cl)s1 | -0.2 | . | -2 | 5.2 | -12% | 14 | 3.4%
O=C(NC1CCCC1)C(c1cccs1)N(C(=O)c1ccno1)c1ccccc1 (configuration not stated) | -0.7 | 0.4% | 6 | -1.5 | 10% | -4 | 6.2%

Three compounds already listed, arranged by the value under Menin-MLL FL inh, lowest first.
molecule,Menin-MLL FL inh,Sfp PPTase inh,TRPML1 blocker
COC(=O)Nc1ccc(S(=O)(=O)Nc2cccc3ccccc23)cc1,0.4,0%,-2
CC(C)(C)OC(=O)C1C(=O)CC(C)(O)C(C(=O)OC(C)(C)C)C1c1cccnc1 (configuration not stated),1.2,-1%,-21
CCCCNC(=S)Nc1ccc2cn[nH]c2c1,5.1,19%,-1

Going on with the list.
compound | TRPML1 agonist | ClpP mod | TRPV1 PAM | Menin-MLL FL inh | Sfp PPTase inh | TRPML1 blocker | PINK1 modulator
N=c1n(CCO)c2ccccc2n1CCOc1ccc(F)cc1 | -0.3 | -0.6% | . | . | . | -20 | -0.5%
Cc1cnc(CNc2nc(-c3ccccc3C)nc3ccccc23)cn1 | . | . | . | ? | -17% | . | -0.3%
CCOC(=O)C1CC(C)=C(C)CC1C(=O)O (configuration not stated) | 1.8 | -1.4% | 26 | -1.4 | 11% | -7 | -0.9%
CCCNC(=S)Nc1ccc2nc(-c3ccccn3)c(-c3ccccn3)nc2c1 | -0.1 | -4.1% | 0 | ? | 18µM* | -4 | 1.2%
Cc1csc(=O)n1CC(=O)OCC(=O)Nc1ccccc1C(C)C | 3.6 | 1.2% | 14 | . | . | 14 | 0.9%
CSC(=Nc1ccccc1)Nc1ccccc1 | 0.3 | . | -6 | 5.8 | 11% | 54 | 8.3%
Cc1ccccc1-c1nn2c(=O)cc(CN3CCN(S(=O)(=O)c4ccc(Cl)cc4)CC3)nc2s1 | -0.4 | -0.7% | . | . | . | -13 | -0.3%
O=C(CN1CCCc2ccccc21)N/N=C/c1ccccc1O | 0.2 | 28µM* | -10 | 4.8 | -19% | 11 | 0.1%
CC(C)C(=O)N1CCCCCCN1C(=O)C(C)C | 0.3 | -1.7% | . | . | . | 0 | -0.1%
Cc1cccc(NC2=NC3(CCCCC3)N=C(N)N2)c1C | -0.4 | 0.4% | 17 | 3.9 | -15% | 10 | 0.8%
CN(C)c1ccc(NC(=O)Cn2cc(S(=O)(=O)Cc3cccc(Cl)c3)c3ccccc32)cc1 | 1.9 | -2.3% | . | . | . | -14 | 9.8%
CC1CCCC(NC(=O)CN2C(=O)NC(C)(c3cc(F)ccc3F)C2=O)C1C (configuration not stated) | -0.5 | . | . | . | . | -6 | -4.0%
CC[n+]1c(/C=C/Nc2ccccc2)oc2ccccc21 | -0.3 | -4.1% | 17 | ? | -4% | -11 | 3.5%[38.3 µM]
COc1ccc(C2CC(c3ccccc3)=NN2C(=O)c2ccc(F)cc2)cc1 (configuration not stated) | -0.9 | -1.2% | 7 | 4.7 | -2% | 37 | 3.1%
CCN(CC)CC(=O)NCC1(c2ccccc2)CCOCC1 | 1.1 | -1.9% | ? | -0.7 | 0% | 6 | 1.1%
C(=N\Nc1nc(N2CCCCC2)nc(N2CCCCC2)n1)/c1c[nH]c2ccccc12 | 0.8 | 1.4% | -4 | -2.9 | 25% | 11 | 17%
COC(=O)C1C(O)=C(C(C)=Nc2cccc3ccccc23)C(=O)CC1(C)C (configuration not stated) | 0.4 | 3.4% | . | -2.0 | -18% | 29 | -0.2%
Cc1cc(NC(=O)CCC(=O)N(CCC(C)C)C(C(=O)NC2CCCC2)c2ccccc2C)no1 (configuration not stated) | -0.8 | . | -4 | -0.4 | 9% | -20 | 7.5%
O=C(O)c1ccc(COc2ccc3ccccc3c2/C=C2/NC(=O)N(Cc3ccc(F)cc3)C2=O)cc1 | 2.7 | . | -10 | 5.4 | 71µM* | -5 | 1.9%
COc1ccc(CC(=O)Nc2ccc(C(=O)Nc3nccs3)cc2)cc1OC | 0.4 | . | -12 | -1.7 | 14% | -13 | 3.5%
CC(=O)c1ccc(Nc2cc(C)nc3c(C)cc(C)cc23)cc1 | 1.1 | . | -8 | -5.3 | 4% | 9 | -2.7%
CC(=O)c1c(C)[nH]c(C(=O)CSc2nnc(-c3ccccc3)n2Cc2ccc3c(c2)OCO3)c1C | 2.2 | -2.0% | -10 | 0.3 | 7% | -19 | 4.2%
COc1cc(/C=N/O)cc(Br)c1OCc1ccc(Cl)cc1 | 0.9 | -0.4% | -3 | 6.8 | 23% | 10 | 7.2%
C[C@@H]1CN([C@@H](C)CO)C(=O)c2c(c3ccccc3n2C)-c2ccccc2CO[C@H]1CN(C)S(=O)(=O)c1ccc(C#N)cc1 | 2.1 | -17% | . | . | . | 7 | 4.9%
CCOC(=O)Nc1ccc2c(c1)N(C(=O)CNC)c1ccccc1CC2 | 0.3 | -1.2% | 2 | 5.2 | -6% | -10 | 1.7%
N#Cc1c(Cn2cncn2)nc(=O)n(-c2ccc(Cl)cc2)c1N | -0.2 | . | -5 | 1.6 | 18% | 1 | -0.9%
O=C(CCc1c[nH]c2ccccc12)NCc1ccco1 | 0.0 | . | 13 | -2.2 | 13% | 11 | 0.6%
COc1ccc(C(=O)/C=C/c2ccc(N(C)C)cc2)c(OC)c1 | 128* | -0.6% | -4 | ? | -18% | -20 | 2.8%
CC(C)(C)NC(=O)CCC1COc2ccccc2O1 (configuration not stated) | -0.2 | -2.7% | -3 | 2.7 | 10% | -7 | 2.9%[38.3 µM]
Cc1cc(S(=O)(=O)N2CCOCC2)ccc1OCC(=O)NCCCn1ccnc1 | 0.6 | . | 13 | -0.9 | 11% | -6 | -0.5%
O=C(COc1ccc(Cl)cc1)NCCS(=O)(=O)N1CCN(c2ccc(F)cc2)CC1 | 0.3 | 2.1% | -7 | 1.9 | -3% | -1 | 2.0%
CC(C)(O)C(=O)N=Nc1c(O)[nH]c2ccccc12 | 0.4 | . | 5 | 0.1 | 5% | -7 | -1.3%
Cc1ccc(C)c(N2CCN(C(=O)CCc3nnc4n(C)c(=O)c5ccccc5n34)CC2)c1 | -0.4 | -24% | . | . | . | -15 | 2.8%
O=C(c1ccco1)N1CCN(C(=O)c2ccc(-c3ccc(Cl)cc3)o2)CC1 | 1.1 | -3.9% | -15 | . | . | 2 | 1.5%
CCOC(=O)N1CCN(Cc2nc3c(c(=O)n(C)c(=O)n3C)n2Cc2ccc(F)cc2)CC1 | 0.3 | 0.6% | -10 | -2.0 | ? | 3 | 3.4%
Fc1ccc(-c2cnn3c(-c4cccs4)ccnc23)cc1 | 1.0 | . | 20 | ? | -5% | 7 | 15%
CCOC(=O)/C=c1\s/c(=C\c2ccc3c(c2)OCCO3)c(=O)n1CC(=O)NCC1CCCO1 (configuration not stated) | 0.4 | -2.3% | -4 | ? | -21% | -3 | 6.2%
O=C(NC1CCCCC1)c1ccc2c(c1)N(Cc1cccc(Cl)c1)C(=O)c1ccccc1S2=O (configuration not stated) | -0.2 | 0.0% | . | . | . | -8 | 1.2%
COc1ccc(C(CNC(=O)CCNS(=O)(=O)c2ccccc2)N2CCOCC2)cc1 (configuration not stated) | 0.4 | -3.3% | . | . | . | -1 | 0.2%
Cc1c(C(=O)NCCN(C)C)oc2ccc(S(=O)(=O)N3CCC4(CC3)OCCO4)cc12 | 1.1 | -1.1% | 16 | 3.2 | 8% | -14 | -1.4%
Cc1ccc(Cl)cc1N1CCN(C(=O)C2CCC(=O)N(C3CCCCCC3)C2)CC1 (configuration not stated) | -0.4 | -2.8% | -3 | . | -17% | -12 | 7.0%
C[C@H](CO)N1C[C@H](C)[C@H](CN(C)S(C)(=O)=O)OCc2ccccc2-c2c(n(C)c3ccccc23)C1=O | -0.1 | -0.4% | . | . | . | -1 | 1.1%
O=C(C1CCCCC1)N(CCN1CCCC1)c1nc2ccccc2s1 | -0.3 | 3.0% | -10 | 8.2 | 19% | 12 | 1.0%
CCCN(CCC)S(=O)(=O)c1ccc(C(=O)N2CCn3c4c(c5cc(C)ccc53)CCCC42)cc1 (configuration not stated) | -0.1 | -12% | . | . | . | -5 | -1.9%
OCCC1CN(Cc2nc3c(s2)CCCC3)CCN1Cc1ccsc1 (configuration not stated) | 0.2 | . | 9 | -0.4 | 22% | 0 | 0.4%

High-throughput results deposited in PubChem BioAssay by National Center for Advancing Translational Sciences (NCATS).
